AmpC inh no det – Promiscuous and Specific Inhibitors of AmpC Beta-Lactamase (assay without detergent); P00811; AmpC nitrocefin hydrolysis, absorbance 480 nm, no detergent; potencies from a single point are estimates; Potency, µM (highest dose often 28.7 µM), inactives show top-dose activity change, negative = inhibition; 1.8% of 71,000 active; AID 585, 2007; active = falling curve, for most hits resting on a single point; inconclusive = weak or doubtful change; inactive = flat or rising curve; also: % of control where 0% means no effect; about half of the hits show no inhibition at the top dose; a quarter of the inactives give rising signals
Target sequence (P00811 whole entry, looked up): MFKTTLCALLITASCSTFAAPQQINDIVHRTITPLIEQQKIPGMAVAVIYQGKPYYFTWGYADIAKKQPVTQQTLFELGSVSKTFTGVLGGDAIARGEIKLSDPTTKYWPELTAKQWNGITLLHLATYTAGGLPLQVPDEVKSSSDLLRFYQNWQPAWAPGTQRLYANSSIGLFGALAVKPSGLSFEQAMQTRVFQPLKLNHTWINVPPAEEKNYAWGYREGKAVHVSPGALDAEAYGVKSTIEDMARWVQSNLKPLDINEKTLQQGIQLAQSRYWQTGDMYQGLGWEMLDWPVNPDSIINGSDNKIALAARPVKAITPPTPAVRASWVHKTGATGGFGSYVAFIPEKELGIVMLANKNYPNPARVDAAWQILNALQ
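AmpC, 20 mM phosphate pH 7.0; 15 min cpd preinc, RT; start with nitrocefin (800 uM stock); A480 kinetic read, 20 s intervals, 4 min. No-enzyme wells = negative control.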
An asterisk follows results filed as active; ? = inconclusive; & = joins results of further samples; [ ] = remark or other dose. Potency is read from the fitted curve at half-maximal effect.

Compound	AmpC inh no det
CC1=C(C(=O)Nc2ccc(Cl)cc2)C(c2cccs2)n2nnnc2N1 (centres undefined)	-5%
O=C(C1CCN(CC2CCCCC2)CC1)N1CCCC1	-7%
CN1CCN(C(=O)c2cc(-c3ccc(O)cc3)on2)CC1	-5%
Cc1ccc(-n2nc3c(c2NC(=O)c2c(-c4ccccc4Cl)noc2C)CSC3)cc1	16%
Cc1noc(C)c1C(=O)N1CCC2(CCN(Cc3ccc(C#N)cc3)CC2)CC1	11%
NC1=NC2(CCC(c3ccccc3)CC2)n2c(nc3ccccc32)N1 (centres undefined)	-18%
FC(F)(F)c1nnc2sc(-c3ccncc3)nn12	0%
c1cncc(-c2nnc(-c3cccnc3)nn2)c1	6%
CC(C)c1cc(C(=O)Nc2cc(Cl)ccc2O)no1	-25%
Cc1c(C(=O)Nc2cccc(C(F)(F)F)c2)oc2ccc(S(=O)(=O)N3CCOCC3)cc12	85%
CSc1ncnc2nc[nH]c12	7%
Cc1ccc(OC(=O)NC2CCS(=O)(=O)C2)cc1C (centres undefined)	8%
Cc1cccc(N2C(=O)NC(=O)C3(Cc4cc(C)ccc4N(C)C3)C2=O)c1 (centres undefined)	1%
CCCCS(=O)(=O)Nc1ccc2c(c1)ncn2C1CCCCC1	8%
Cc1nnc(SCC(=O)NCc2cccs2)[nH]c1=O	?
CC(O)CC(C)O (centres undefined)	-10%
Cc1cc(C)nc(NC(=O)C(C)N2C(=O)c3ccccc3C2=O)n1 (centres undefined)	-2%
CCc1ccccc1NC1c2ccccc2C(=O)N1c1cccnc1 (centres undefined)	23%
COc1ccc(C2CC(=O)C3=C(C2)NC(C)=C(C#N)C3c2ccc(N(C)C)cc2)cc1 (centres undefined)	48%
CCCCn1c(O)c(C=NCCCN(CC)CC)c(=O)[nH]c1=O	90%
O=C(CCS(=O)(=O)c1cc(Br)cc2c1N(C(=O)C1CC1)CC2)NCc1ccco1	8%
O=C(COc1ncnc2ccccc12)NC(=O)NCc1ccccc1	-3%
COc1cccc(NC(=O)C2CCCN(S(=O)(=O)c3ccc(-n4cnnn4)cc3)C2)c1 (centres undefined)	17%
Cc1cccc2nc(CNc3ccc(F)cc3)cn12	12%
CC1(C)NC(=O)N(CC(O)COC2CCCCC2)C1=O (centres undefined)	0%
CN(CCC#N)c1ncnc2scc(-c3ccccc3)c12	15%
Cc1sc2ncn(CC(=O)N(CC(=O)NC3CCCC3)Cc3cccs3)c(=O)c2c1C	92%
COC(=O)COc1ccc(S(=O)(=O)Nc2ccc3c(c2)OCCO3)cc1Cl	-11%
Oc1cccc(O)c1O	?
Cc1ccc2c(C(=O)CN3CCN(C4CCCCC4)CC3)c(C)[nH]c2c1	15%
COC(=O)C(CC(C)C)NC(=O)c1cc(OC)c(OC)c(OC)c1 (centres undefined)	27%
CC1CCN(C(=O)COC(=O)c2n[nH]c3ccccc23)CC1	21%
O=C(CSc1nnc(-c2cc3ccccc3cc2O)n1Cc1ccco1)c1ccc(F)cc1	10µM*
COc1cc2nc(SCC(=O)NCc3ccco3)n(Cc3ccc(Cl)cc3)c(=O)c2cc1OC	51%
C1CCC(n2nnnc2CN2CCN(C3CCCC3)CC2)CC1	4%
O=C(O)c1cc2nc(C3CC3)cc(C(F)(F)F)n2n1	9%
O=C(c1ccco1)N1CCN(C(=O)c2sccc2-c2ccccc2)CC1	15%
O=C(O)c1ccccc1NS(=O)(=O)c1ccc2c3c(cccc13)C(=O)N2	-20%
COC(=O)c1cccc(N2C(=O)c3ccccc3S2(=O)=O)c1	16%
CCc1ccccc1NC(=O)C1CCCN(S(=O)(=O)c2c(C)noc2C)C1 (centres undefined)	2%
COc1ccc(CNc2nc(-c3cccnc3)nc3ccccc23)c(OC)c1	83%
CC(C)OCCCNC(=O)C1CCC(=O)N1C(C)C (centres undefined)	11%
Cc1ccc(-n2nnnc2SCC(=O)N2CCN(C(=O)c3ccco3)CC2)c(C)c1	81%
Cc1[nH]c2ccccc2c1NC(=O)CN1CCN(c2cccc(C(F)(F)F)c2)CC1	107%
CSc1ccccc1NC(=O)CN(c1ccccc1)S(=O)(=O)N(C)C	26%
C[C@H](O)C(=O)C1=Nc2c(nc(N)[nH]c2=O)NC1	-12%
CN(C)C(=O)COc1ccc2ccc(=O)oc2c1	10%
Cn1c(C(=O)Nc2ccc3c(c2)OCO3)cc2sccc21	?
CS(=O)(=O)N(CC(=O)N1CCC(C(N)=O)CC1)C1CCCCC1	-3%
CS(=O)(=O)N1CCN(c2nc(-c3ccccc3)cs2)CC1	68%
CCOC(=O)CSc1nc2ccc(NC(C)=O)cc2s1	4%
Cc1cc2ncn(N)c2cc1C	13%
Cc1occc1C(=O)Nc1cccc2ccccc12	-7%
CCn1c(=O)n(CC(=O)N2CCC3(CC2)OCCO3)c(=O)c2ccccc21	13%
CCOC(=O)CN1C(=O)C(C)(C)Oc2ccc(C(=O)Nc3ccccc3OC)cc21	75%
CCC(=O)N1CCN(C(=O)c2ccccc2)CC1	7%
Cn1c(=O)c2ncn(CC(=O)Nc3cc(C(F)(F)F)ccc3N3CCOCC3)c2n(C)c1=O	72%
O=C(CSc1nnnn1Cc1ccccc1)NCCc1ccccc1	6%
CC/C(CC(C)(C)c1ccccc1)=N\O	-3%
O=C(c1cnccn1)N1CCC2(CCCN(c3ccccc3)C2)CC1	69%

Further results follow.
compound | AmpC inh no det
O=C(O)CS(=O)(=O)CC(=O)O | 1%
CCn1cc(C(=O)N2CCN(c3ccccn3)CC2)c2cc(OC)c(OC)cc2c1=O | 44%
COc1ccc(C(=O)N(Cc2ccco2)Cc2cc3cc(C)ccc3[nH]c2=O)cc1OC | 54%
CCC(C)Sc1nnc(Cc2cc(=O)[nH]c(=O)[nH]2)n1-c1ccc(OC)cc1 (centres undefined) | 3.2µM*[single pt active]
Cc1ccccc1Cn1ccc(NC(=O)c2onc(C)c2Cl)n1 | 12%
CCOC(=O)Cc1csc(NC(=O)CSc2nnnn2-c2ccc(F)cc2)n1 | -6%
COc1ccc(NC(=O)CN2C3CCC2CC(O)(c2cccnc2)C3)cc1OC (centres undefined) | 5%
Cc1ccccc1OCC(=O)Nc1cccc(N(C)S(C)(=O)=O)c1 | 5%
CC(=O)c1n[nH]nc1Nc1nc(C)cc(C)n1 | 2%
COc1ccc(OCCSc2ncccn2)cc1 | 18%
Cn1c(=O)[nH]c(=O)c2c1nc(NCCCn1ccnc1)n2Cc1cccc(Br)c1 | -3%
O=C(O)c1ccc(OCc2ccccc2)c(Cl)c1 | 0%[5.75 µM]
Cc1ccc(C(=O)C2COC(=O)C2)cc1 (centres undefined) | 3%
Nc1cc(-c2ccccc2)ccc1O | ?
COc1ccc(OC)c(CN2C(=O)c3ccccc3C2C(=O)NCc2cccnc2)c1 (centres undefined) | 4µM*[single pt active]
CCOC(=O)C(NC(=O)CC)(Nc1cc(C)on1)C(F)(F)F (centres undefined) | -8%
CCc1nnc(NC(=O)C2CCCCC2)s1 | -9%
O=c1cc(-c2ccc(Cl)cc2)[nH][nH]1 | -5%
O=C(NCc1cccs1)c1csc2ccccc12 | -5%
COCCn1nnnc1C(c1ccc(Cl)cc1)N1CCSCC1 (centres undefined) | 35%
CCOC(=O)c1ccccc1NC(=O)CSc1ncc(C(=O)OCC)c(N)n1 | 78%
CCOC(=O)OCC | -5%
COC(=O)[C@@]1(Cc2ccc(OC)cc2)[C@H]2c3cc(C(=O)N(C)C)n(Cc4ccccc4)c3C[C@H]2CN1C(=O)c1ccccc1 | 153%
NC(=O)C1CCN(c2nc(C3CC3)nc3c2nnn3Cc2ccccc2)CC1 | 35%
NC(=O)CSc1nnc(Cn2c(=O)sc3ccccc32)n1CCc1ccccc1 | 119%
CCn1cnc2cc(NCc3ccncc3)ccc21 | 9%
NC(=O)CCn1c(=O)oc2ccccc21 | -6%
O=C(CC1N=C2c3ccccc3N=C(SCc3ccccc3Cl)N2C1=O)NCc1ccco1 (centres undefined) | 49%
CCN(C#N)c1nc(N(C)C)nc(N(C)C)n1 | 12%
CCC(=O)c1cc(F)c(N2CCN(C(=O)Cc3ccccc3)CC2)cc1C | 54%
CCn1c(=O)c(=O)[nH]c2cc(C(=O)NC3CCCc4ccccc43)ccc21 (centres undefined) | 10%
Oc1c(Cl)c(Cl)c(Cl)c(Cl)c1Cl (tested in a mixture with another compound) | -11%&-5%&-6%&-2%[5.75 µM]
CCS(=O)(=O)N1CCCC(C(=O)NCCCN(C)Cc2ccccc2)C1 (centres undefined) | -4%
Cc1cccc(N2CCN(C(=O)c3ccc(NS(=O)(=O)c4c(C)noc4C)cc3)CC2)c1C | 27%
CC(=O)Nn1c(-c2ccccc2)cc2ccccc21 | 7%
CN(CC(=O)Nc1ccc(Cl)cc1)CC(=O)Nc1cc(Cl)ccc1C#N | 62%
CC(=O)Nc1c(O)nc(SCC(=O)Nc2ccc(C(C)=O)cc2)[nH]c1=O | -5%
Cn1cc(/C=N/n2cnc3scc(-c4ccccc4)c3c2=O)c2ccccc21 | -3%
CS(=O)(=O)N(CCc1ccccc1)CC(=O)N1CCN(Cc2ccccc2)CC1 | 104%
CCC(C)(C(=O)NC1CCCC1)N(CC1CCCO1)C(=O)c1ccc2c(c1)OCO2 (centres undefined) | 27%
O=C(NCC1CC1)[C@@H]1C[C@H]1[C@@H](NP(=O)(c1ccccc1)c1ccccc1)c1ccccc1 | 111%
Oc1cc2c(cc1CN1CCN(c3ccccc3)CC1)CCC2 | -1%
O=C(CN1CCCN(S(=O)(=O)c2ccc(Br)cc2)CC1)Nc1ccc2cn[nH]c2c1 | 8%
COc1cc(C2C(C(=O)OC(C)C)=C(C)Nc3ncnn32)cc(OC)c1OC (centres undefined) | 4µM*[single pt active]
Cn1c(=O)[nH]c(=O)c2c1nc(Br)n2CC(O)c1ccccc1 (centres undefined) | -7%
CN(c1ccccc1)c1nc(-n2ccnc2)nc(-n2ccnc2)n1 | 62%
COc1ccc(-n2c(Cn3c(=O)sc4ccccc43)nnc2SC)cc1 | 65%
COc1ncc2nc(-c3cccs3)c(=O)n(Cc3ccc(F)cc3)c2n1 | 2%
c1csc(CCNc2ncnc3sc4c(c23)CCC4)c1 | 16%
C=CCOc1ccc(C2/C(=C(\O)c3c(C)[nH]c(C(=O)OC)c3C)C(=O)C(=O)N2CCN(C)C)cc1 (centres undefined) | 4%
C[N+]1(C)CCc2cc(O)c(O)cc2[C@H]1Cc1ccc(O)c(O)c1 | -7%[5.75 µM]
CCN(CC)C(=O)CN1CCC(n2c(C)nc3cc(C(F)(F)F)ccc32)CC1 | 112%
C=CCn1c(SCc2csc(C)n2)nc2scc(-c3ccc(C)o3)c2c1=O | 46%
Cc1cccc(-n2c(SCCC(=O)O)nnc2-c2cccs2)c1C | 6%
COC(=O)c1cc(OC)c(OC)cc1NC(=O)CCc1ccc(C)o1 | 113%
O=C(C1CC1)N1CCc2cc(Br)cc(S(=O)(=O)N3CCN(c4ccccn4)CC3)c21 | 74%
CN1CCCCCC1=NC1=C(C#N)CCCC1 | -10%
CC1CN(C(=O)COC(=O)c2cccs2)CC(C)O1 (centres undefined) | -4%
Cn1c(Br)nc2c1c(=O)n(CC(O)COc1ccccc1)c(=O)n2C (centres undefined) | 21%
COC(=O)c1ccc(NC(=O)CSc2nnc(Cc3cccn3C)n2-c2ccc(F)cc2)cc1 | 114%

Other results follow:
compound | AmpC inh no det
O=C(c1nnc(Cc2ccc(Cl)cc2)o1)N1CCOCC1 | 7%
CC(=O)NS(=O)(=O)c1ccc(N)cc1 | -11%
Nc1nc2c(ncn2COC(CO)CO)c(=O)[nH]1 | 2%[12.8 µM]
CC(O)CNC(=O)C1CCN(Cc2ccc(OCc3ccccc3)cc2)CC1 (centres undefined) | 55%
COc1ccc(-c2cnc(N)nc2-c2ccc(OC)cc2O)cc1 | 2%
CCCCCCn1c(CN2CCC(C)CC2)nc2c1c(=O)n(C)c(=O)n2C | 87%
O=C(/C=N/O)NCc1cccnc1 | 1%
Cc1ccc2cc(CN(CCCN3CCOCC3)C(=O)NC3CCCCC3)c(=O)[nH]c2c1C | 126%
COc1ccc(NC(=O)CSc2nc3sc(C)c(C)c3c(=O)n2Cc2ccco2)cc1 | -24%
COc1cc(OC)c(OC)cc1CNCCNC(=O)c1nonc1N | 1%
Cc1ccc2c(c1)CCCN2C(=O)c1cccs1 | 9%
Cc1nc2ccccn2c1-c1csc(NCc2ccco2)n1 | 6%
N#Cc1cccc(-c2nc(NCc3cccs3)c3ccccc3n2)c1 | -20%
CS(=O)(=O)N1CCC2(CCCN(c3ncccn3)C2)CC1 | 11%
COc1ccc(OC)c(-n2c(-c3cccc(O)c3)n[nH]c2=S)c1 | -12%

This is a subset; count on the stated rates, not on these rows.
